VDR inhibitor: blocks the human vitamin D receptor. VDR-SRC2-3 peptide fluorescence polarization, 2 h. Potency, µM, without a hit: max response, negative = inhibition, usual class: inhibitors. hit rate 0.93% among 400,000; active = well fitted inhibition curve with a large enough effect; inconclusive = small, poorly fitted or top-dose-only effect, or another doubt; inactive = no such curve, though single readings can be large or run the other way; also: series mostly up to about 120 µM
Target sequence (P11473 whole entry, looked up): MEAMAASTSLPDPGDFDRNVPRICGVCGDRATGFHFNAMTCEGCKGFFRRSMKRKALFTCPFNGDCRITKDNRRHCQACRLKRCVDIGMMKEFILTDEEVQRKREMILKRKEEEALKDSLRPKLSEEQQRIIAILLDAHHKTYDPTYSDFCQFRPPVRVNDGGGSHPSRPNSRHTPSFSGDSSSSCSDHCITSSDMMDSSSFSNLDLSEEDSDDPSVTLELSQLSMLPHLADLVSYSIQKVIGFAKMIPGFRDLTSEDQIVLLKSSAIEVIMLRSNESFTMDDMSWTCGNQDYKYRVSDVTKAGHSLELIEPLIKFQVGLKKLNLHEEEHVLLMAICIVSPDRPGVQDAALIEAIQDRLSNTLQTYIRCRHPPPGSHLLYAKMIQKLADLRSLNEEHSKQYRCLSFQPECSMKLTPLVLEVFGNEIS
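Inhibition of the VDR/SRC2-3 peptide interaction is quantified by fluorescence polarization. Compounds (23 nl, pintool) incubate with the reagents for 2 hours at ambient room temperature.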
Active calls of the source: *; u = inconclusive; & = joins results of further samples; [ ] = dose if it differs, or a comment. % is scaled to controls: 0 for no effect and ±100 for the full control effect; potency is read from the fitted curve at half-maximal effect. Not all compounds are listed; count on the stated rates, not on these rows.

Sample of the layout, 3 compounds:
| VDR inhibitor | compound |
| --- | --- |
| 6% | COc1ccc(-c2noc(CCC(=O)NC3CCCCCC3)n2)cc1 |
| 26% | Cc1nc2cc(Cl)c(Cl)cc2n1-c1ccccn1 |
| 5% | CCOC(=O)c1c(C)nc(-c2ccccc2)nc1NC(=O)C(C)C |

Results, from the start:
| VDR inhibitor | compound |
| --- | --- |
| 6% | COc1ccc(-c2noc(CCC(=O)NC3CCCCCC3)n2)cc1 |
| 26% | Cc1nc2cc(Cl)c(Cl)cc2n1-c1ccccn1 |
| 5% | CCOC(=O)c1c(C)nc(-c2ccccc2)nc1NC(=O)C(C)C |
| -13% | O=C(c1cc2nc(C3CC3)cc(C(F)F)n2n1)N1CCOCC1 |
| 11% | Cc1cccc(N2C(=O)NC3(CCCCC3)C2=O)c1 |
| -3%&-19% | O=C(Nc1cccnc1Cl)c1cc(-c2cccc(Cl)c2)on1 |
| -4% | COc1ccccc1Cc1nc(-c2ccc(Br)o2)no1 |
| 15% | Fc1ccc(NC(=S)N2CCOCC2)c(F)c1 |

Following part.
| VDR inhibitor | compound |
| --- | --- |
| 2% | CN1CCN(C(=O)CCN2C(=O)/C(=C\c3ccc(Cl)cc3Cl)SC2=S)CC1 |
| -2% | COC(=O)[C@H](Cc1ccccc1)NC(=O)C1(OC(C)=O)CC(OC(C)=O)C(OC(C)=O)C(OC(C)=O)C1 (stereo partly drawn) |
| 1% | COc1ccc(Cl)cc1N1C(=O)/C(=C/c2sccc2C)N=C1SCC(=O)NC1CC1 |
| 18% | COc1ccccc1NC(=O)N1CCN(S(C)(=O)=O)CC1 |
| -26% | Cc1cc(F)ccc1S(=O)(=O)Nc1nc2ccccc2nc1Cl |
| 5% | O=C(NC(=O)c1ccccc1)OCC(F)(F)F |
| -2% | Cc1cc(C)c(-c2n[nH]c3c2C(c2ccccc2F)N(Cc2ccco2)C3=O)c(O)c1 (stereo not drawn) |
| -4% | COc1ccc(S(=O)(=O)NCC2CCCN(C(=O)c3cccnc3)C2)cc1 (stereo not drawn) |

Brought forward from above: 3 compounds, then new ones.
| VDR inhibitor | compound |
| --- | --- |
| 5% | O=C(NC(=O)c1ccccc1)OCC(F)(F)F |
| -2% | Cc1cc(C)c(-c2n[nH]c3c2C(c2ccccc2F)N(Cc2ccco2)C3=O)c(O)c1 (stereo not drawn) |
| -4% | COc1ccc(S(=O)(=O)NCC2CCCN(C(=O)c3cccnc3)C2)cc1 (stereo not drawn) |
| -5% | O=C(N/N=C/c1ccc2c(c1)OCO2)c1cccs1 |
| 23% | O=C(Nc1ccc(Br)cc1)c1ccc(N2C(=O)C3CC=C(Cl)CC3C2=O)cc1 (stereo not drawn) |
| -2% | COC(=O)c1ccc2ccccc2n1 |
| 4%&-8% | C=CCc1ccc(OC(=O)c2ccccc2)c(OC)c1 |
| -18% | O=C(Cn1c(=O)[nH]c2sc3c(c2c1=O)CCCC3)NCC1CCCO1 (stereo not drawn) |
| -17% | CC(c1ccccc1)N1C(=O)NC(NC(=O)C(C)(C)C)(C(F)(F)F)C1=O (stereo not drawn) |
| -12% | CN(C)c1ccc(C(=O)Nc2cccc(S(=O)(=O)NC3=NCCCCC3)c2)cc1 |
| -6% | CN(C(=O)COC(=O)C12CC3CC(CC(C3)C1)C2)c1c(N)n(Cc2ccccc2)c(=O)[nH]c1=O |

Grouped by structure: the entries above with four or more nitrogen atoms
| VDR inhibitor | compound |
| --- | --- |
| -13% | O=C(c1cc2nc(C3CC3)cc(C(F)F)n2n1)N1CCOCC1 |
| -12% | CN(C)c1ccc(C(=O)Nc2cccc(S(=O)(=O)NC3=NCCCCC3)c2)cc1 |
| -6% | CN(C(=O)COC(=O)C12CC3CC(CC(C3)C1)C2)c1c(N)n(Cc2ccccc2)c(=O)[nH]c1=O |

(more compounds)
| VDR inhibitor | compound |
| --- | --- |
| 1% | CCCOc1cccc(-c2cc(-c3n[nH]c(=S)n3CC)c3ccccc3n2)c1 |
| -15% | CC(C)c1nc(C(=O)N2CCc3c([nH]c4ccccc34)C2c2ccccn2)cs1 (stereo not drawn) |
| -12% | C=CCC[C@@H](Cc1ccc(F)cc1)C(=O)OC[C@H](C)NC(=O)[C@H](CC=C)CC(=O)N(CCO)Cc1ccccc1 |
| -2% | CN(C)C(=O)c1ccc(NC(=O)COC(=O)/C=C/c2cccs2)cc1 |
| -2% | O=C(CC(c1ccccc1)c1cc(Br)ccc1O)NCC1(c2ccccc2)CCCC1 (stereo not drawn) |
| -4% | O=C1C2CCCN2C(c2cccs2)N1c1ccc(Cl)cc1 (stereo not drawn) |
| -9% | O=[N+]([O-])c1cccc2ccc(/C=C/c3ccc(C(F)(F)F)cc3)nc12 |
| 7% | O=C(CSc1nc(-c2ccccc2)cn1-c1ccccc1F)Nc1ccc(F)cc1 |

Remaining list, next part.
| VDR inhibitor | compound |
| --- | --- |
| -11% | CCOC(=O)C1CCCN(C(=O)COc2ccc(C(=O)c3ccc(F)cc3)cc2)C1 (stereo not drawn) |
| 4% | Cc1ccccc1Cn1c(=O)n(CC2CCC(C(=O)N3CCC(C)CC3)CC2)c(=O)c2sccc21 (stereo not drawn) |
| -9% | CC1CCCN(C(=O)Nc2ccc(Br)cc2Cl)C1 (stereo not drawn) |
| -1% | CCCOc1ccccc1N/C(=N\S(=O)(=O)c1ccc(C)cc1)Nc1nc(C)cc(C)n1 |
| -6% | CCC1CCCCN1S(=O)(=O)c1ccc(S(=O)(=O)N2CCN(S(=O)(=O)CC)CC2)cc1 (stereo not drawn) |
| 5% | Cc1sc2ncn(CC(=O)N3CCN(c4cccc(Cl)c4)CC3)c(=O)c2c1S(=O)(=O)N1CCN(c2ncccn2)CC1 |
| -9% | Cn1c(SCC(=O)NC(=O)NCc2ccccc2)nnc1C(F)(F)F |
| 1% | Cc1c(C)n(CCc2ccccc2)c2ncnc(NN)c12 |

(continued)
| VDR inhibitor | compound |
| --- | --- |
| -13%&9% | CC1C(=O)Nc2ccc(S(=O)(=O)Nc3ccccc3Br)cc2NC1=O (stereo not drawn) |
| -8% | Cc1ccccc1CS(=O)(=O)CCC(=O)NCc1ccc(F)cc1Cl |
| -6% | Cc1cc(OC(C)C(=O)NCC2CCC(C(=O)O)CC2)c2c(C)c(C)c(=O)oc2c1 (stereo not drawn) |
| 3% | Cc1cccc(CSc2ncnc3c2cnn3Cc2ccccc2)c1 |
| 13% | O=C(O)C(=Cc1ccccc1[N+](=O)[O-])c1ccccc1 |
| u | CCOc1cccc(NC(=O)/C(C#N)=C\c2cccnc2)c1 |
| -16% | COc1ccccc1C(=O)Nc1ccc2oc(-c3cccc4c(Br)cccc34)nc2c1 |
| 4% | CCc1ccc(Nc2nc3c(S(=O)(=O)c4cccc(Cl)c4)nnn3c3ccsc23)cc1 |

More structures follow.
| VDR inhibitor | compound |
| --- | --- |
| 0% | O=C(CNC(=O)c1ccc(Cl)cc1Cl)Nc1ccc(F)cc1 |
| 2% | COc1ccc(-c2noc(CCC(=O)NCc3cccnc3)n2)cc1OC |
| -8% | COc1ccc(S(=O)(=O)N2CCCOC2CNC(=O)C(=O)NCc2ccco2)cc1C (stereo not drawn) |
| -8% | CCOC(=O)C1CCCN(C(=O)c2cccc(S(=O)(=O)N(C)c3c(C)n(C)n(-c4ccccc4)c3=O)c2)C1 (stereo not drawn) |
| -6% | CC1CCCC(NC(=O)CN2CCN(S(=O)(=O)c3ccc(Br)s3)CC2)C1C (stereo not drawn) |
| -20% | COc1cccc(O)c1CN1CCC(Oc2ccc(C(=O)NCc3ccccn3)cc2)CC1 |
| -15% | C/C(=N\Nc1ccc(Cl)c(C(=O)O)c1)c1ccccn1 |
| 1% | NC(=O)c1ccc(Oc2ccc3ccc(=O)oc3c2)c([N+](=O)[O-])c1 |

(continued)
| VDR inhibitor | compound |
| --- | --- |
| 8% | Cc1ccnc(NC(=O)CCC(=O)N(CC(=O)NCc2ccccc2)Cc2ccccc2)c1 |
| -22% | COc1c(Cl)cc(Cl)cc1/C=N/n1cnnc1 |
| -13% | CSc1ccccc1NC(=O)c1ccc(N2CC3CC(C2)c2cccc(=O)n2C3)c(NC(=O)c2cccnc2)c1 (stereo not drawn) |
| 2% | CCc1c(C)nc2ncnn2c1N1CCN(S(=O)(=O)c2ccc(OC)cc2)CC1 |
| -12% | COc1cc(Cl)cc(CN2CCC(CCC(=O)NC3CC3)CC2)c1OC |
| -9% | O=C(NCCc1ccccn1)c1n[nH]c(=O)c2ccccc12 |
| -9% | COc1cc2c(cc1OC)C(Nc1ccc(S(N)(=O)=O)cc1)=NC(C)(C)C2 |
| 7% | O=C(O)C(c1ccccc1)N1CCCCC1 (stereo not drawn) |

Other records:
| VDR inhibitor | compound |
| --- | --- |
| 22% | CC(=O)N1CCc2cc(Br)cc(S(=O)(=O)NCc3ccc(Cl)cc3)c21 |
| 2% | CCCn1nnnc1NCc1ccc(N(C)C)cc1 |
| -9% | COc1ccccc1OCCSc1nc2ccccc2n1CCC(=O)O |
| 22% | Nc1nnc(SCc2ccc([N+](=O)[O-])cc2)s1 |
| 41%[activator] | Cc1ccc(-c2cc(NC(=O)C(C)Oc3ccccc3F)on2)cc1 (stereo not drawn) |
| 1% | COc1ccc(Cc2nnc(SCC(=O)Nc3ccccc3C)n(N)c2=O)cc1 |
| -16% | O=C(CSCc1ccccc1)N1CCN(S(=O)(=O)c2cccc(F)c2)CC1 |
| 0% | CC(On1c(-c2ccccc2)nc2ccc(Cl)cc21)C(=O)O (stereo not drawn) |

Additional records follow:
| VDR inhibitor | compound |
| --- | --- |
| 0% | N#CC1(c2ccccc2)CCCN1C(=O)c1ccccc1Cl (stereo not drawn) |
| -5% | Cc1cccc(OCCCC(=O)N2CCCCCC2)c1C |
| -7% | O=C(Nc1cccc(-c2nc3ccccc3[nH]2)c1)c1ccccn1 |
| -2% | CCC(C)NCCCCOc1ccc(C)cc1[N+](=O)[O-] (stereo not drawn) |
| -2% | Cc1ccc(S(=O)(=O)NCc2cn3ccsc3n2)c(C)c1 |
| -13% | CC(NC(=O)COC(=O)c1ccccc1Nc1ccccc1)c1ccccc1 (stereo not drawn) |
| -3% | O=C(NCc1ccccn1)C1CCN(S(=O)(=O)c2cccs2)CC1 |
| u | Cc1ccc(C2CC(=O)N3CN(Cc4ccco4)CSC3=C2C#N)cc1 (stereo not drawn) |

The listing continues.
| VDR inhibitor | compound |
| --- | --- |
| -1% | Cc1nc2ccccc2c2oc(C(=O)NCc3ccc4c(c3)OCO4)cc12 |
| 18% | Cc1ccc(NC(=O)CCC(=O)NNC(=O)c2ccccc2Cl)c(C)c1 |
| 2% | Cc1cc(Cl)ccc1OCCCC(N)=O |
| 3% | CCN(c1cccc(C)c1)S(=O)(=O)c1cc2c3c(c1)CCC(=O)N3CCC2 |
| -16% | COc1ccc(CC(=O)OC(C)CN2CCOCC2)cc1 (stereo not drawn) |
| -12% | COc1ccccc1N1CC(C(=O)Nc2nnc(SC)s2)CC1=O (stereo not drawn) |
| 9% | COc1ccc(C2/C(=C(/O)c3ccccc3)C(=O)C(=O)N2c2ccccn2)c(OC)c1 (stereo not drawn) |
| 50µM* | Cc1c(N2C(=O)/C(=C\C3CC=CCC3)SC2=S)c(=O)n(-c2ccccc2)n1C (stereo not drawn) |

(continued)
| VDR inhibitor | compound |
| --- | --- |
| 2% | NC1CONC1=O (stereo not drawn) |
| -19% | COCCNC(=O)c1cc2c(-c3ccccc3F)nn(C)c2s1 |
| -19% | Cc1ccccc1CCNC(=O)Cn1ccc2cc(S(=O)(=O)N3CCCC3)ccc21 |
| 1% | COc1ccccc1C(=O)n1nc(-c2ccc(Cl)cc2)nc1N |
| -24% | COc1cccc(NC(=O)[C@H](CC(C)C)NC(=O)N2CCn3c2nc2ccccc23)c1 |
| 4% | Cc1cc(OC(C)C(=O)Nc2ccccc2C(=O)N2CCCC2)ccc1Cl (stereo not drawn) |
| -1% | CCOC(=O)C(=O)NNc1ccc(Cl)cc1 |
| 19% | COc1ccc(NC(=O)COc2cccc3c2OC(C)(C)C3)cc1OC |

Next part:
| VDR inhibitor | compound |
| --- | --- |
| 2% | CCc1ccccc1N1CC(C(=O)Nc2nccs2)CC1=O (stereo not drawn) |
| -10% | CCCC(=O)Nc1ccc(NC(=O)c2ccccc2Cl)nc1 |
| -11% | O=C(CCCCO)CCCCCCCC[C@H]1N[C@H](CO)[C@H](O)[C@@H]1O[C@@H]1O[C@H](CO)[C@@H](O)[C@H](O)[C@H]1O |
| u | COc1ccc(C2/C(=C(\O)c3ccc4c(c3)OCCO4)C(=O)C(=O)N2CCCN(C)C)c(OC)c1 (stereo not drawn) |
| -1% | Cc1ccc(NC(=O)CN(C)C(=O)COC(=O)c2nc3nccc(C)n3n2)cc1 |

A draw from above in order of molar mass, lowest first.
| VDR inhibitor | compound |
| --- | --- |
| -1% | CCOC(=O)C(=O)NNc1ccc(Cl)cc1 |
| -10% | CCCC(=O)Nc1ccc(NC(=O)c2ccccc2Cl)nc1 |
| 19% | COc1ccc(NC(=O)COc2cccc3c2OC(C)(C)C3)cc1OC |
| 4% | Cc1cc(OC(C)C(=O)Nc2ccccc2C(=O)N2CCCC2)ccc1Cl (stereo not drawn) |
| -11% | O=C(CCCCO)CCCCCCCC[C@H]1N[C@H](CO)[C@H](O)[C@@H]1O[C@@H]1O[C@H](CO)[C@@H](O)[C@H](O)[C@H]1O |
